# Vaccinia pol inh – inhibitors of vaccinia virus processive DNA synthesis (E9 polymerase); hit rate 0.94% among 46,000; normalized absorbance, % (test concentration not listed); in vitro processive DNA synthesis, absorbance read-out; active compounds read low; some inactives read as strong as hits; AID 493162;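 active means replicate mean up to 90% and picked by the depositor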;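 further: 100% = median of the test wells of a plate; 100 nL library stock went into each well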
# Active calls of the source: *.
Compound	Vaccinia pol inh
C=CCc1ccccc1OCC(O)CN1CCN(C(=O)OCC)CC1 (stereo unspecified)	97
O=C(CCCC(=O)c1ccccc1)Nc1ccc2c(c1)CCC2	102
O=C(Nc1ccc(S(=O)(=O)N2CCCCC2)cc1)c1cc(-c2cccs2)nc2ccccc12	100
Cc1ccc(Nc2nnc(-c3ccc(C)c(S(=O)(=O)NCC4CCCO4)c3)c3ccccc23)cc1 (stereo unspecified)	99
CC1=NN(c2ccccc2)C(=O)C1C=NC1CCS(=O)(=O)C1 (stereo unspecified)	100
Cc1ccc2nc(=S)nc(-c3ccccc3)n2c1	100
O=C(Nc1cccnc1)c1cc2c(s1)-c1ccccc1CC2	94
Cc1cc2c(cc(C(=O)NCc3ccc(Cl)cc3)n2Cc2ccc(Cl)cc2)o1	82
OCCN1CCN(C(c2ccccc2)c2ccc3cccnc3c2O)CC1 (stereo unspecified)	96
Cc1cc(NC(=O)C2CC2)nc2c1c(=O)oc1ccccc12	101
Cc1cc(C)c(S(=O)(=O)N2CCc3ccccc32)c(C)c1	100
Cc1nc2cc(C(=O)O)ccc2n1-c1ccc(Br)cc1	85
CCc1ccc(N2C(=O)c3ccccc3NC2(C)C)cc1	102
COc1cccc(NC(=O)CSc2ccccc2)c1	102
Cc1ccc2c(c1)CCCN2C(=O)CC(=O)N1CCCc2cc(C)ccc21	96

Compound	Vaccinia pol inh
CCOc1ccccc1NC(=O)c1ccccc1O	99
CCCCCCCCCCCCC/C=C/[C@@H](O)[C@H](CO)NC(C)=O	101
Cc1ccc(CNC(=O)NCCN2CCN(c3ccccc3)CC2)cc1	101
CCOC(=O)c1[nH]c2ccccc2c1NC(=O)Cc1ccc(OCC)cc1	101
Cc1ccc2c(c1)-c1onc(C(=O)NCCN3CCc4ccccc4C3)c1CO2	90
CCOC(=O)c1cc(-c2ccccc2)sc1NC(=O)CN1CCc2ccccc21	100
CC1COC(c2cccn2Cc2ccc(Cl)cc2)=N1 (stereo unspecified)	94
CCC1CSC(Nc2ccccc2)=N1 (stereo unspecified)	100
O=C(Cc1ccc(Cl)cc1)NCCCn1ccnc1	102
Cc1nc2sc(C(c3cccs3)N3CCC(C)CC3)c(O)n2n1 (stereo unspecified)	99
CC1CN(C(=N)N)CC(C)O1 (stereo unspecified)	113
O=C(CSc1ncccc1C(=O)O)NC1CCCCC1	105
COC(=O)C1=NN(c2ccccc2)C(=O)/C1=C\N(C)C	101
CCCN(CCC)C(=O)CC(c1ccccc1)c1cc(Br)ccc1O (stereo unspecified)	101
O=C1c2ccccc2SCC1(CO)CO	106

# Looked up above:
# O=C(CSc1ncccc1C(=O)O)NC1CCCCC1 – Vaccinia pol inh: 105
# CC1CN(C(=N)N)CC(C)O1 (stereo unspecified) – Vaccinia pol inh: 113
# COC(=O)C1=NN(c2ccccc2)C(=O)/C1=C\N(C)C – Vaccinia pol inh: 101
# CCCCCCCCCCCCC/C=C/[C@@H](O)[C@H](CO)NC(C)=O – Vaccinia pol inh: 101
# CCOC(=O)c1cc(-c2ccccc2)sc1NC(=O)CN1CCc2ccccc21 – Vaccinia pol inh: 100
# CCOc1ccccc1NC(=O)c1ccccc1O – Vaccinia pol inh: 99
# CCOC(=O)c1[nH]c2ccccc2c1NC(=O)Cc1ccc(OCC)cc1 – Vaccinia pol inh: 101

# (list continues)
Compound	Vaccinia pol inh
Cn1c(-c2ccc(N)cc2)nc2ccccc21	98
CC(=O)NC1C(=O)N(C)N=C1c1ccccc1 (stereo unspecified)	100
O=C(CSc1nc2c(c(C(F)(F)F)n1)CCCCC2)NCCC1=CCCCC1	100
CC(=O)OC1CC2C(CCCC2(C)C)C2C(=O)C(O)C(C(C)C)C(=O)C12 (stereo unspecified)	97
CCCC(=O)Nc1cc(C(=O)NC2CCCCC2C)ccc1S(=O)(=O)c1ccc(C)cc1 (stereo unspecified)	105
CCCNC(=S)N1CCC(C(=O)c2ccc(C)cc2)CC1	100
OCCCc1nc2ccccc2n1C1CCCCC1	96
O=C(NCCO)c1ccc(CSc2nc3ccccc3[nH]2)cc1	100
CCCN1C(=O)SC(CC(=O)Nc2ccc(C(=O)OCC)cc2)C1=O (stereo unspecified)	100
O=C(O)c1cn[nH]c1-c1ccc(F)cc1	93
CCCn1c2c(c(=N)c3c1CCC3)CCC2	100
CN=Cc1cc(-c2ccccc2)n(C)c1S	100
Cc1ccc(C(=O)OCC(=O)N2CCOCC2)c(C)c1	99
CC(=O)NC(CC(=O)O)c1ccccc1 (stereo unspecified)	109
Cc1nc(-c2cc(C#N)c(Sc3cccc(C(F)(F)F)c3)nc2C)cs1	103

# Among those listed so far, these have an aryl thioether with sulfur outside any ring:
Compound	Vaccinia pol inh
COc1cccc(NC(=O)CSc2ccccc2)c1	102
O=C(CSc1ncccc1C(=O)O)NC1CCCCC1	105
O=C(CSc1nc2c(c(C(F)(F)F)n1)CCCCC2)NCCC1=CCCCC1	100
O=C(NCCO)c1ccc(CSc2nc3ccccc3[nH]2)cc1	100
Cc1nc(-c2cc(C#N)c(Sc3cccc(C(F)(F)F)c3)nc2C)cs1	103

# Later entries.
Compound	Vaccinia pol inh
N#CC1=C(N)Oc2c(c(=O)oc3ccccc23)C1CCc1ccccc1 (stereo unspecified)	96
N#Cc1ccc(NC(=O)c2ccc(Br)cc2)cc1	103
C=CCOC(=O)c1sc(N2C(=O)c3oc4ccc(F)cc4c(=O)c3C2c2ccc(O)cc2)nc1C (stereo unspecified)	103
CCOC(=O)N1CCN(c2cc(NCCC(=O)O)c3c4c(onc24)-c2ccccc2C3=O)CC1	70*
O=C(NC1CCCC1)C1CCN(c2nc3ccccc3n3cccc23)CC1	94
c1ccc(Cc2nc3c4cnn(Cc5ccccc5)c4ncn3n2)cc1	97
CCOC(=O)c1c(NC(=O)Nc2ccc(Cl)c(Cl)c2)sc(C)c1C	100
CCN(C(=O)c1cccc(C(=O)N(CC)c2ccccc2)c1)c1ccccc1	99
N#Cc1c(-c2cccs2)nc(SCC(=O)c2ccc(Br)cc2)[nH]c1=O	69*
Cc1cc(S(=O)(=O)N2CCCC2)c(C)s1	90
CCCCn1c(CNC(C)=O)nc2ccccc21	101
Cc1ccc(-c2nc(CSCC(=O)N3CCCC3)c(C)o2)cc1	86
COc1ccc(COC(=O)N/C=C/c2ccccc2)cc1	119
O=S(=O)(Nc1ccc(N2CCCCC2)cc1)c1ccccc1F	90
Cc1cc(C)c(C(=O)CC(N2CCCCC2)C(F)(F)F)c(=O)[nH]1 (stereo unspecified)	99

Compound	Vaccinia pol inh
CC1CCN(C(=O)C(Cc2ccccc2)NS(=O)(=O)c2ccc3c(c2)c(=O)n(C)c(=O)n3C)CC1 (stereo unspecified)	99
COCCn1c(=NC(=O)c2cccc(OC)c2)sc2cc(Br)ccc21	103
CCCCC1C(=O)N(c2ccccc2)N(c2ccc(O)cc2)C1=O (stereo unspecified)	100
Cc1nc2nc3ccccc3nc2n1-c1ccc(F)cc1	96
O=S(=O)(Cc1ccccc1)n1ccnc1	100
CCCOC(=O)c1ccc(Nc2nc3ccccc3n3c(C)nnc23)cc1	101
CSc1ccc(-c2nc(N)sc2-c2ccccc2)cc1	100
O=C(/C=C/c1ccccc1)Nc1ccc2sccc2c1	101
O=C(COC(=O)/C=C/c1ccc(F)cc1)Nc1ncc(C(F)(F)F)cc1Cl	101
O=c1o[nH]c(-c2ccccc2F)c1C=Nc1ccc(Cl)cn1	101
Cc1ccc(NC(=S)N2CCCN(c3ncc(C(F)(F)F)cc3Cl)CC2)c(C)c1	103
O=c1[nH]c2ccc(Oc3ccc4[nH]c(=O)c(=O)[nH]c4c3)cc2[nH]c1=O	112
Cc1csc2sc(C(=O)c3ccc(Cl)cc3)c(C)c12	98
CC(CNC(=O)Cn1ncc2ccccc21)c1ccccc1 (stereo unspecified)	102
CCOC(=O)C1C(=S)NC(N)=C(C#N)C12CCCCC2 (stereo unspecified)	97

Compound	Vaccinia pol inh
O=C(c1ccc(Cl)cc1)c1ccc(S(=O)(=O)c2ccc(Cl)cc2)cc1	104
Cc1ccc(CCNC(=O)c2cccn3c(=O)c4c5c(sc4nc23)CCCC5)cc1	88
Cc1ccc2cc(CCNC(=O)C3CC3)c(=O)[nH]c2c1	100
Cc1noc(/C=C/N(C)C)c1S(=O)(=O)Nc1cccc(Cl)c1	109
CC(C)(C)C(=O)Nc1ccc(-c2nc3ccccc3s2)c(O)c1	100
C=CCNc1c(Cl)cc(Cl)cc1C(=O)O	88
OC(COCc1ccccc1)C[N+]1(Cc2ccccc2)CCOCC1 (stereo unspecified)	104
COc1ccccc1N1CCN(/N=C/c2sccc2C)CC1	100
CCOc1ccc(NC(=O)CNS(=O)(=O)c2ccc3c(c2)C(C)(C)C(=O)N3C)cc1	102
Cc1sc(NC(=O)c2ccccc2F)c(C(=O)c2ccc(Cl)cc2)c1C	88
COc1ccc2ncc(S(=O)(=O)c3ccc(Cl)cc3)c(N3CCCCC3C)c2c1 (stereo unspecified)	97
O=C1c2cccc3cccc(c23)N1S(=O)(=O)c1cccs1	89
CSc1nc2ccc3nc(NC(=O)C4=COCCO4)sc3c2s1	99
COc1ccc2nc(NC(=O)C3CCCCC3)sc2c1	102
Cc1ccc(C(=O)OCC(N)=O)s1	99

Compound	Vaccinia pol inh
CC1(C)Cc2cccc(C(=O)N3CCC(O)(c4ccc(Cl)cc4)CC3)c2O1	127
CC12CCC(O)CC1=CCC1C2CCC2(C)C(O)/C(=C/c3ccc(F)cc3)CC12 (stereo unspecified)	105
O=C(O)c1ccc(CSc2nnc(Cc3ccccc3)n2-c2ccccc2)cc1	100
O=C(Nc1ccccc1C(=O)N1CCCC1)C(c1ccccc1)c1ccccc1	99
CCOC(=O)c1c(-c2ccccc2)csc1NC(=O)c1ccccc1C(=O)O	94
Cc1ccc(Nc2nnns2)cc1C	97
Cc1cccc(N/C=C(\C#N)c2nc(-c3ccc4c(c3)OCO4)cs2)c1	94
CC1CCCN(C(=O)COC(=O)/C=C/c2ccccc2Cl)C1 (stereo unspecified)	82
COc1ccccc1/C=C1/SC(=O)N(CCC(=O)Nc2ccccc2)C1=O	100
C=CCn1c(SCC(=O)Nc2ccc(C)cc2)nnc1C1CC1	100
CCOc1ccc(-c2cnc3n2CCC3)cc1	103
CC(C)(C)c1[nH]nc2c1C(c1ccc(OC(=O)c3ccccc3Cl)cc1)C(C#N)=C(N)O2 (stereo unspecified)	100
COC(=O)c1ccccc1NC(=O)COc1ccc(OC)cc1	99
Cc1c(C(=O)NCc2ccccc2)oc2c1C(=O)CCC2	104
COc1ccc(-c2cc(NC(=O)N3CCc4ccccc4C3)c3ccccc3n2)cc1	100

Compound	Vaccinia pol inh
O=C(Nc1ccc2cn[nH]c2c1)c1cccc(Oc2ccccc2)c1	100
CSC1=C(C#N)C(c2ccc(OCc3ccccc3)cc2)C2=C(CCCC2=O)N1 (stereo unspecified)	100
CC1CC(C)CN(C(=O)c2ccc3c(c2)OCO3)C1 (stereo unspecified)	98
Cc1ccc(-c2nnc(SC(=O)OCc3ccccc3)o2)cc1	100
COc1cc(C2NC(=O)NC(C)=C2C(=O)NCc2ccccc2)ccc1OCC(N)=O (stereo unspecified)	97
Ic1cccc(-c2nnc(-c3ccccc3)o2)c1	110
CN(Cc1nc2ccccc2n1C)C(=O)c1ccco1	106
CCOc1ccccc1NC(=O)c1ccc(Cl)cc1	97
O=C(Nc1ccccc1)Nc1ccc(N2CCOCC2)cc1	100
O=C(O)CCCN1C(=O)CSC1=S	97
CCn1cc(C(=O)NCCc2ccccc2)c(=O)c2cc(S(=O)(=O)N(C)C)ccc21	96
N=C1/C(=C/c2ccco2)C(=O)N=C2SC(C3CCCCC3)=NN12	100
CC(C)N(C(=O)c1cc(C(=O)c2ccccc2)c[nH]1)C(C)C	91
Cc1ccc(S(=O)(=O)c2nnn3c2nc(NCC2CCCO2)c2ccccc23)cc1 (stereo unspecified)	104
COc1ccc(C(=O)NC(C)c2nc3ccccc3n2C)cc1OC (stereo unspecified)	96

Compound	Vaccinia pol inh
CCc1nnc(NC(=O)C(C)Sc2ccccc2)s1 (stereo unspecified)	101
COc1ccc2c(c1)CCc1c(C(=O)N3CCCC3)noc1-2	100
O=C(Nc1ncnc2sc3c(c12)CCCCC3)c1ccc(F)cc1	100
CCN(CC)C(=S)SC1=C(Cl)CS(=O)(=O)C1	95
O=C1C=CC(=O)N1Cc1ccc(Cl)cc1	102
CCOC(=O)Cc1csc(NC(=O)Nc2cccs2)n1	99
Cc1nc(C(F)(F)F)ccc1C(=O)N1CCN(c2nc3ccc(Cl)cc3s2)CC1	106
Nc1ccc2c(c1)nc(CO)n2CCO	99
O=C(Oc1cccc2cccnc12)c1cn(-c2ccccc2)nc1-c1ccccc1	100
Cn1nc(OC(C)(C)C(=O)Oc2ccc(Cl)cc2Cl)cc1C(F)(F)F	99
Cc1cc(C)cc(OCC(=O)n2nc(C)cc2C)c1	105
O=c1c(-[n+]2ccccc2)cc2[nH]c3ccccc3c2n1-c1ccccc1	100
CC1(C)CC(=O)c2cc3c(N)c(C(=O)c4ccc(Cl)cc4)sc3nc2C1	98
C[N+](C)(C)CCOc1ccc2nc(N)sc2c1	99
COC(=O)CC12CC3CC(C1)CC(C(=O)OC)(C3)C2	103

Compound	Vaccinia pol inh
CC(C)C(=O)Nc1ccc(Cl)c(C(=O)c2ccccc2)c1	103
O=C(O)c1cc(=O)[nH]c2c(Cl)cccc12	101
Cc1nc(-c2ccccc2)c(CC(=O)O)s1	92
CC(C)c1cccc(O)c(=O)c1	99
CC(=O)NC1=NC(=O)/C(=C\c2cccs2)N1C	93
CC(=O)NCC1CCCN2CCCCC12 (stereo unspecified)	99
O=C(Sc1ccc(Cl)cc1)c1ccco1	100
O=S(=O)(NC1CCCCC1n1cc(-c2ccccc2)nn1)c1ccc(Cl)cc1 (stereo unspecified)	100
CC1CCN(C(=O)CCS(=O)(=O)c2ccc3c(c2)SCC(=O)N3)CC1	103
Oc1ccc2ccccc2c1CN1CCN(Cc2ccccc2)CC1	101

# These rows are one share of the data; rates above refer to the full screens.
